Menin-MLL FL inh: displaces fluorescein MLL peptide from human menin; Fluorescence polarization, fluorescein-MLL peptide displacement from menin; FP activity change, % at 61.4 µM; 290,000 tested, under 10 active; inconclusive = falling polarisation curve, or a change in total fluorescence; inactive = total fluorescence flat and polarisation flat or rising; no compound was filed as active; the % refers to the polarisation; negative = inhibition;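 note: % of control where 0% means no effect; inhibitors lower the polarisation; unlabelled MLL peptide was the positive control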
TRPV1 potentiator: enhances activation of the human vanilloid receptor TRPV1. Q8NER1. TRPV1-expressing cells, Fluo-8 calcium influx, capsaicin EC20 potentiation; host cell line not named in the record; control for the full effect not named in the record. potentiation, % at 8.33 µM. 320,000 compounds, 0.02% hits. AID 540277; active means potentiation above 80%; inconclusive means 30% to 80%; inactive means below 30%; note: 0% is about no effect
Target sequence (Q8NER1 whole entry, looked up): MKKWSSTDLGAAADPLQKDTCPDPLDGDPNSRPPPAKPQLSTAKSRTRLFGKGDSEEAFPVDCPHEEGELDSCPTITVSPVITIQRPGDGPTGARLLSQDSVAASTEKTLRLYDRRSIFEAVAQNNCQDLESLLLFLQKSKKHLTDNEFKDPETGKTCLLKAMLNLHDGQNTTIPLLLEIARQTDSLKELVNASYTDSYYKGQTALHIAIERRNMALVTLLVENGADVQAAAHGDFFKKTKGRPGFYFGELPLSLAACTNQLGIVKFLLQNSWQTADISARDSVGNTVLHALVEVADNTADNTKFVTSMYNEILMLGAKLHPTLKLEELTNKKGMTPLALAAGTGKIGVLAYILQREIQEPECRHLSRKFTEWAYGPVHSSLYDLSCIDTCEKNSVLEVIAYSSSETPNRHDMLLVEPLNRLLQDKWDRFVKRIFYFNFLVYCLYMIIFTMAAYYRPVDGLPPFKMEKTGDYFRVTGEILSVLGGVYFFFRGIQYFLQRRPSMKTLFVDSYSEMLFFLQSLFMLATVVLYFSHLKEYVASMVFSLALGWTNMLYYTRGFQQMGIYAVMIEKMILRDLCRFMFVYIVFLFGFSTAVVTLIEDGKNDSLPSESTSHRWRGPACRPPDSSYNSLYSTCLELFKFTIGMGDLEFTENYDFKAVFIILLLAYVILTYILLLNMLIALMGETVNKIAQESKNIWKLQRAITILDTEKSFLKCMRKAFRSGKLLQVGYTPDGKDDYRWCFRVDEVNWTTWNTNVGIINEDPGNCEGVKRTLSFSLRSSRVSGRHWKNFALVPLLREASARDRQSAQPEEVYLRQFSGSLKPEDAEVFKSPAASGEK
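TRPV1-expressing cells were cultured overnight at 35.5C and loaded with Fluo-8 calcium dye for 40 to 90 min at room temperature. After a 10 s baseline, compound was added and calcium influx was read kinetically for 3 min (ex 480/em 520 nm).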
ClpP mod: qHTS Assay for Activators of ClpP. ATP-dependent Clp protease proteolytic subunit (Bacillus subtilis (strain 168)), P80244. purified B. subtilis ClpP, FRET peptide cleavage, 20 min. Potency, µM (doses to about 57.5 µM), for the others: at the highest dose activity change, negative = active. 340,000 compounds, 1.9% hits; active = well fitted falling curve with a large enough effect; inconclusive = small, poorly fitted or top-dose-only effect; inactive = no such curve, though single readings can be large or run the other way; note: potency is the fitted concentration of half-maximal effect; the source files actives as falling curves though it sought activators and does not explain the sign; nearly all actives have a fitted effect of over 65% in size; many hits overshoot -100%
Target sequence (P80244 whole entry, looked up): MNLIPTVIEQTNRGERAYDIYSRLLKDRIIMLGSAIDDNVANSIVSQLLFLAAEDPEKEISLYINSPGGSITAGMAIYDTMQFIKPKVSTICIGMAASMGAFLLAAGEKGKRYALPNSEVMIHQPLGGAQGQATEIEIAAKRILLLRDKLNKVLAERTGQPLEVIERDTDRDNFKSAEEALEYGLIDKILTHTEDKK
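Purified B. subtilis ClpP, 10 microg/mL final in Tris/HCl pH8 with KCl, BSA, glycerol and Tween-20, cleaved an Abz/nitrotyrosine-quenched decapeptide. Fluorescence (ex 320, em 430) was read at 0 and 20 min at room temperature. Delta was normalized to 5.8 microM ADEP and DMSO/no-enzyme controls.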
gsp ag: activates gsp, the McCune-Albright syndrome mutation; gsp mutant cells, cAMP HTRF, 30 min; control for the full effect not named in the record; Potency, µM (doses to about 76.9 µM), inactives show top-dose activation (cAMP increase), hits mostly activators; 340,000 compounds, 0.13% hits; active = well fitted activation curve with a large enough effect; inconclusive = small, poorly fitted or top-dose-only effect, or another doubt; inactive = no such curve, though single readings can be large or run the other way; cell line not stated here;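 note: phosphodiesterase inhibitor Ro 20-1724 added with compounds to block cAMP breakdown; potency is the fitted concentration of half-maximal effect; nearly all actives have a fitted effect of over 60% in size; about a fifth of the inactives were tested at one dose only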
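Cells in DMEM/10% FBS with G418 were pretreated with compounds in DMSO plus […] (300 uM stock) for 30 min at 37C. cAMP was measured by HTRF (cAMP-d2 plus anti-cAMP antibody-K) after 30 min at room temperature.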
CtBP-E1A inh: inhibitors of CtBP/E1A interaction; AID 651724; 340,000 compounds, 0.49% hits; activity change, % (test concentration not listed); AlphaScreen GST-E1A/His-CtBP binding, 1536-well; active compounds read low; control for the full effect not named in the record; in the data active means activity change below about -65%; inconclusive means about -30% to -65%; inactive means above about -30%; note: % is set by controls: 0 for no effect and ±100 for the full control effect
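GST-E1A and His-tagged CtBP (125 nM each as 5X stock) were preincubated with pin-transferred compound for 2 h at 37 °C in the dark, then glutathione donor and nickel acceptor beads were added for 1 h before AlphaScreen reading.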
Sfp inh: inhibitors of Bacillus subtilis Sfp phosphopantetheinyl transferase | Q9F4F7 | Biochemical Sfp PPTase activity, qHTS | Potency, µM, for the others: max response, negative = inhibition, usual class: inhibitors | 310,000 compounds, 3.5% hits; active = well fitted inhibition curve with a large enough effect; inconclusive = small, poorly fitted or top-dose-only effect, or another doubt; inactive = no such curve, though single readings can be large or run the other way;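 note: the enzyme is Sfp with the accession as filed and its product quenches rhodamine fluorescence; potency is the fitted concentration of half-maximal effect; 0% = enzyme reaction without inhibitor and -100% = no enzyme wells; top concentration of the series not given in the record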
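Fluorescence-quenching assay with 15 nM Sfp, 5 uM rhodamine-CoA and 12.5 uM BHQ-2-labelled ybbR peptide in pH 7.6 Hepes/MgCl2 buffer. Enzyme was pre-incubated with compound for 15 min at room temperature. Rate was taken from the 30-min fluorescence change (525/598 nm).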
gsp antag: antagonizes gsp, the McCune-Albright syndrome mutation. AID 624288. Potency, µM (doses to about 76.9 µM), for the others: at the top dose activity change, negative = inhibition, most hits filed as inhibitors. gsp-mutant cells, cAMP HTRF, 30 min; control for the full effect not named in the record. 340,000 compounds, 0.4% hits; active = falling curve of any shape with a large fitted effect; inconclusive = falling curve, mostly with a smaller effect; inactive = flat or rising curve; cell line not stated here;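 note: intracellular cAMP measured with PDE inhibitor Ro 20-1724 present during compound exposure; potency is the fitted concentration of half-maximal effect; % is set by controls: 0 for no effect and ±100 for the full control effect; nearly all actives have a fitted effect of over 65% in size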
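HTRF cAMP measurement after 30 min RT detection following 30 min, 37C compound treatment alongside […] (added as 300 uM solution) in G418-selected cells seeded at 2000/well and grown 16–24 h.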
An asterisk follows results filed as active; u = inconclusive; x = no result given; & = joins results of further samples; [ ] = another dose, or the depositor's remark.

SMILES | Menin-MLL FL inh | TRPV1 potentiator | ClpP mod | gsp ag | CtBP-E1A inh | Sfp inh | gsp antag
CC12CCC(C(=O)NCc3cccnc3)(OC1=O)C2(C)C (centres undefined) | 0.2 | 5 | -1.1% | 0% | 7 | 15% | 6%
CCOC(=O)N(Cc1ccccc1)C(C(=O)O)C(C(=O)O)N(Cc1ccccc1)C(=O)OCC (centres undefined) | 4.7 | 2 | -7.9% | -20% | 8 | 16% | -6%
FC(F)(F)c1cnc(Sc2ncn[nH]2)c(Cl)c1 | 0.5 | 0 | x | -9% | 13 | 11% | 5%
Cc1nn(Cc2ccccc2)c(C)c1NC(=O)CSc1nc(C2CC2)nc2c1cnn2-c1ccccc1 | -0.3 | 26 | -6.5% | -1% | -1 | 9% | 15%
CNc1nc(C)c(C(=O)OCC(=O)OC)s1 | -2.0 | 2 | 2.9% | -3% | 11 | 4% | 3%
COc1ccc(/[N+]([O-])=C/c2ccco2)cc1 | x | 2 | -3.0% | u | -1 | x | 1%
O=c1oc2ccccc2cc1-c1ccc(O)cc1O | -4.4 | -5 | 0.5% | u | 0 | 15% | -3%
O=C(O)C(=O)/C(=C\c1cccc(Cl)c1)c1ccc2ccccc2n1 | u | -8 | x | 0%[15.4 µM] | -5 | -22% | 13%
COc1ccc(OC)c(NC(=O)CSC2=NCCS2)c1 | 1.4 | 19 | -1.3% | -22% | 1 | 14% | -1%
CCCCOc1cccc(C2C(C(=O)c3cccs3)=C(O)C(=O)N2Cc2cccnc2)c1 (centres undefined) | -0.1 | 8 | 0.5% | u | -11 | -7% | -1%
Cc1cc(S(=O)(=O)c2ccc([N+](=O)[O-])cn2)ccc1Br | x | x | -0.3% | -8%[15.4 µM] | -19 | x | 4%
Cc1nnc(NC(=O)CN2CC(C)OC(C)C2)s1 (centres undefined) | -7.1 | -1 | x | -26% | 4 | -11% | 13%
CC1(C(=O)O)CC(C)(C(=O)O)CC(C)(C(=O)O)C1 (centres undefined) | -2.4 | 5 | -1.2% | 1% | -1 | 8% | 6%
CCCCNC(=O)[C@@H]1CSC2c3ccccc3C(=O)N21 (some centres undefined) | -7.8 | 18 | x | 1%[15.4 µM] | 2 | 7% | 9%
COc1ccc(CN2CCNC(=O)C2CC(=O)N(C)CCc2cnn(C)c2)c(F)c1 (centres undefined) | -7.7 | 5 | -8.7% | -3% | -22 | 13% | 12%
CN(c1cccc(NC(=O)c2ccccc2N(C)S(=O)(=O)c2ccccc2)c1)S(C)(=O)=O | -0.4 | -4 | -0.6% | 0% | 2 | 2% | -18%
CCCN1C[C@H](CSC)C[C@@H]2c3cccc4[nH]cc(c34)C[C@H]21 | -1.4&-8.9&5.0&-9.0 | -20 | -4.9% | x | 0 | 1%&13% | -9%
Cc1cccc(NC(=S)N(CCCN2CCOCC2)C(C)c2cc3ccccc3o2)c1C (centres undefined) | 0.7 | -18 | 2.4% | -1% | 2 | 5% | u
CNC(=O)COc1coc(CN2CCN(Cc3ccccc3)CC2)cc1=O | x | 24 | 0.4% | -27% | 3 | -1% | 2%
C=CCc1cccc(/C=N/NC(=O)CNc2ccccc2)c1O | 1.2 | 12 | 0.1% | -1% | -2 | 6% | -11%
COCCN(C(=O)c1ccccc1)c1nnc(-c2cccnc2)s1 | 1.0 | 3 | 1.5% | 0% | 1 | 15% | -13%
CS(=O)(=O)N(CC(=O)N1CCCCC1)c1sc2c(c1C#N)CCCC2 | 2.5 | -7 | -1.8% | -5%[15.4 µM] | -4 | 12% | 4%
COCCCNc1nc(N)c([N+](=O)[O-])c(N2CCCCCC2)n1 | -6.7 | 11 | 0.3% | u | 1 | 1% | 1%
COc1ccc(/C=N/Nc2ccc([N+](=O)[O-])cc2)cc1O | u | 3 | x | -5% | -1 | -17% | 0%
CC(C)NCCOCCSc1ccc(Cl)cc1 | 0.4 | -8 | -0.7% | 5% | 5 | -24% | 19%

(cont.)
SMILES | Menin-MLL FL inh | TRPV1 potentiator | ClpP mod | gsp ag | CtBP-E1A inh | Sfp inh | gsp antag
COc1cc(/C=C/C(=O)NCCc2ccc(S(N)(=O)=O)cc2)ccc1OCC#N | 4.8 | 5 | 3.4% | -31%[inhibitor] | -11 | 3% | -5%
O=C(Nc1ccccc1Cl)c1ccc(-n2cccn2)c([N+](=O)[O-])c1 | u | 20 | x | -6%[15.4 µM] | 0 | -5% | -19%
O=C(Nc1ccc2c(c1)OCCO2)C1CC(c2ccc(F)cc2)=NO1 (centres undefined) | 0.6 | 3 | 0.8% | 3% | 2 | 4% | -6%
Cc1cc(C)c2sc(NC(=O)C3=COCCO3)nc2c1 | 5.8 | 1 | -12% | -13% | 4 | 6% | -17%
CC(C)C[C@H](NC(=O)OC(C)(C)C)C(=O)N[C@@H](CO)[C@H](O)[C@@H]1C[C@@H]1C(=O)N(C)C | -2.4 | -4 | -4.7% | 4% | x | 5% | -7%
CC(=O)Nc1ccc(S(=O)(=O)N2CCN=C2SCc2ccccc2C)cc1 | x | -18 | -3.1% | -18%[15.4 µM] | -14 | 21% | 1%
COc1cc(/C=N/NC(=O)Cn2cnc3ccccc3c2=O)ccc1O | 0.7 | 14 | x | 1%[15.4 µM] | -11 | 6% | 3%
CCOc1nc(NCCO)nc(Nc2ccccc2F)n1 | -11 | 1 | 2.1% | -30% | 9 | 19% | 3%
COc1cccc(/C(C#N)=C/c2c(-c3ccc(Cl)cc3)nc3c(C)cccn23)c1 | 6.8 | -16 | -13% | 29% | u | 6% | -20%
Cc1ccc(N/C=C/c2onc(C)c2[N+](=O)[O-])cc1 | u | 7 | 1.4% | -14% | x | 8% | -2%
O=C(CCCCCNC(=O)N1CCn2c1nc1ccccc12)NCc1ccccc1 | -12 | 13 | -2.9% | -71%[inhibitor] | u | 12% | 0%
CC(=O)Nc1ccc(C2CC(c3ccc(Cl)cc3)=NN2c2ccccc2)cc1 (centres undefined) | 2.8 | 10 | 4.0% | u | 21 | 14% | -1%
COc1ccc(C(=O)NCCNc2nc3ccc(C)cc3cc2C#N)cc1 | -6.8 | 15 | -23% | -2% | x | u | -3%
Oc1cc(NCc2cccnc2)ccc1-c1nc2ccccc2o1 | 1.4 | -1 | 35µM* | -1% | -13 | 1% | -26%
CC(=O)Oc1ccc(C(=O)[C@H]2[C@H]3C(=O)N(c4ccc(C)cc4C)C(=O)[C@H]3[C@@H]3C=CC=NN32)cc1 | u | 1 | x | -1%[15.4 µM] | -3 | 50µM* | -10%
CCCN1CCN(C(=O)CS(=O)(=O)Cc2nc(-c3cccc(OC)c3)oc2C)CC1 | 2.6 | 10 | -13% | 8% | -12 | 3% | 5%
Cc1csc(Cn2c(CN(C)C)nc3ccccc3c2=O)n1 | 2.8 | 5 | -5.9% | 24% | -2 | 22% | 14%
COc1cccc(C(=O)NC2CCCC2)c1 | 3.9 | 0 | x | 6% | 3 | 11% | 3%
C/C(CC(=O)NCCCN1CCOCC1)=N\NC(=O)COc1ccc(C)cc1 | 3.3 | u | -1.1% | 7% | 3 | -11% | 3%
CCOC(=O)C1=C(C)NC(C)=C(C(=O)OC)C1c1ccco1 (centres undefined) | 1.5 | -3 | x | -9%[15.4 µM] | -12 | 5% | 10%
O=c1c2ccccc2nnn1CSc1nnc2ccccn12 | 0.2 | 7 | 2.5% | -1% | 6 | 0% | 4%
COC(=O)c1cccc(S(=O)(=O)N2CCOCC2)c1 | -4.0 | 1 | 1.7%&-0.7% | 3% | 6 | 10% | 6%
Cc1cc2ncn(CC(O)COc3cccc(C(=O)O)c3)c2cc1C (centres undefined) | 1.5 | 3 | 0.6% | -1% | -5 | 0% | 2%
CC(C)CNS(=O)(=O)c1cc(C(=O)OCC(=O)N(C)C2CCS(=O)(=O)C2)c(Cl)cc1Cl (centres undefined) | 1.8 | 0 | 0.7% | -15% | x | 18% | -10%
Cc1ccc(C)c(NC(=O)c2ccccn2)c1 | 4.2 | 0 | 0.1% | 17% | 26 | -4% | 6%
COc1cc(C2C(C#N)=C(N)Oc3n[nH]c(-c4ccncc4)c32)cc(OC)c1OC (centres undefined) | 2.1 | -1 | 0.4% | u | -4 | 4% | 1%
Cc1ccccc1-n1nnnc1SCC(=O)N(C)C1CCS(=O)(=O)C1 (centres undefined) | -0.6 | 8 | x | u | 6 | 13% | 5%
CN(C)S(=O)(=O)c1ccc(Cl)c(NC(=O)CSc2nc3c(cc2C#N)C(=O)CCC3)c1 | 3.6 | 3 | -0.8% | u | -15 | -10% | -12%
CCOc1ccc(N(Cc2cc3ccc(C)cc3[nH]c2=O)S(=O)(=O)c2ccccc2)cc1 | -4.2 | 12 | 32µM* | -54%[inhibitor] | x | 12% | -1%

Quoted at random: seven entries already listed.
SMILES | Menin-MLL FL inh | TRPV1 potentiator | ClpP mod | gsp ag | CtBP-E1A inh | Sfp inh | gsp antag
Cc1cc(C)c2sc(NC(=O)C3=COCCO3)nc2c1 | 5.8 | 1 | -12% | -13% | 4 | 6% | -17%
CCCN1CCN(C(=O)CS(=O)(=O)Cc2nc(-c3cccc(OC)c3)oc2C)CC1 | 2.6 | 10 | -13% | 8% | -12 | 3% | 5%
CCOc1ccc(N(Cc2cc3ccc(C)cc3[nH]c2=O)S(=O)(=O)c2ccccc2)cc1 | -4.2 | 12 | 32µM* | -54%[inhibitor] | x | 12% | -1%
O=C(Nc1ccc2c(c1)OCCO2)C1CC(c2ccc(F)cc2)=NO1 (centres undefined) | 0.6 | 3 | 0.8% | 3% | 2 | 4% | -6%
O=C(Nc1ccccc1Cl)c1ccc(-n2cccn2)c([N+](=O)[O-])c1 | u | 20 | x | -6%[15.4 µM] | 0 | -5% | -19%
CC(=O)Oc1ccc(C(=O)[C@H]2[C@H]3C(=O)N(c4ccc(C)cc4C)C(=O)[C@H]3[C@@H]3C=CC=NN32)cc1 | u | 1 | x | -1%[15.4 µM] | -3 | 50µM* | -10%
Cc1ccc(C)c(NC(=O)c2ccccn2)c1 | 4.2 | 0 | 0.1% | 17% | 26 | -4% | 6%

Compound activity deposited in PubChem BioAssay by National Center for Advancing Translational Sciences (NCATS).
